Bioassay records (PubChem BioAssay)
GALR2 agonist: GALR2 (human) receptor agonism. O43603. GALR2-expressing cells, agonist activation read-out. activation, %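 (tested at 5 µM)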. actives 0.48% (n = 140,000);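 active means above mean plus 3 SD of all compounds, about 5% in these data, not always enough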;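 further: 0% = vehicle buffer wells and 100% = reference agonist at full effect; tested in CHO reporter cells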
HSV augment: increases HSV replication in cells. HSV replication augmentation in cells, fold increase. maximum fold increase. actives 0.005% (n = 220,000);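 active means peak rise of 1.5-fold or more in the series; tested in PC3 cells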;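 further: first round at 10 µM; read as green reporter fluorescence; hits show the peak of a series up to 25 µM; 1 = signal of infected wells without compound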
RGS16-Gao: regulators of human RGS16-Galphao interaction; bead-based flow cytometry RGS16-Galphao binding, fluorescence; actives lie on both sides; binding response (% of control), % at 10 µM; actives 0.38% (n = 220,000);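 active means below 25% or above 175%, edge rows of some plates excepted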;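 further: Galphao activated by GDP with aluminum fluoride before binding; 100% = wells without compound and 0% = beads without RGS; some results beyond the cut were filed as inactive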
PKD1 inh: inhibitors of human PKD1 kinase; AID 797; PKD1 kinase fluorescence polarization assay; inhibition, %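 (about 10 µM by stock and volumes)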; Q15139; actives 0.056% (n = 200,000);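 active means inhibition of 50% or more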;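 further: controls were vehicle for no effect and a reference inhibitor for full effect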
Target sequence (Q15139 whole entry, looked up): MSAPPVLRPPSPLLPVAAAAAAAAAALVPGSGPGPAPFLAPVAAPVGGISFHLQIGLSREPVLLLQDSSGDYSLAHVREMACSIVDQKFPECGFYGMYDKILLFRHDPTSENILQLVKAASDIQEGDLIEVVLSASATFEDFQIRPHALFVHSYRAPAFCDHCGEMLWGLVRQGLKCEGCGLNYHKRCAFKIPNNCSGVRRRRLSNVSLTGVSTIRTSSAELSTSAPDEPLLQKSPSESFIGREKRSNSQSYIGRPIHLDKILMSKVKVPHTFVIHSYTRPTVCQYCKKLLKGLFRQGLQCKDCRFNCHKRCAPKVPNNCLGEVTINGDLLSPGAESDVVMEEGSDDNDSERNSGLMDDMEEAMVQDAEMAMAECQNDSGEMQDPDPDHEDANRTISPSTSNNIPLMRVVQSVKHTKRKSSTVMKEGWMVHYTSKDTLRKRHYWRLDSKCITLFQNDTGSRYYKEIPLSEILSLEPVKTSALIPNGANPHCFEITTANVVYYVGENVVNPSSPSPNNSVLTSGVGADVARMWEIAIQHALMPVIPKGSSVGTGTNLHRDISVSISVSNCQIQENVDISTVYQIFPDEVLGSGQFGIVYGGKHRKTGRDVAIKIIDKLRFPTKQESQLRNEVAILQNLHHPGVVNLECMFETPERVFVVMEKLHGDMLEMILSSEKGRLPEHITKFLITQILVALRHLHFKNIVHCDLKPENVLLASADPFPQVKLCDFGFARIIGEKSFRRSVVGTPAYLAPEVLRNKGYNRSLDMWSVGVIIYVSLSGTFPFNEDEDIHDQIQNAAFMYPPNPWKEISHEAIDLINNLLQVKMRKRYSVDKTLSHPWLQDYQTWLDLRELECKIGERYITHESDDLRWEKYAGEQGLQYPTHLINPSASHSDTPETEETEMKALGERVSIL
INS promoter inh: TRM-6 insulin promoter activity inhibition. TRM-6 cells (human fetal islet line), insulin promoter-eGFP reporter, imaging; reporter expression induced with tamoxifen. inhibition, % at 2 µM. actives 0.9% (n = 130,000). AID 1273;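 active means inhibition above the mean plus 3 SD, with well images judged a real hit on visual review, cut at about 60% in these data, passing the limit was not always enough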
INS promoter inh cell count: recorded beside INS promoter inh, whose call it bears; normalized cell count, %; measured here: cell count, toxicity; reference of the scale not given here;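 cells exposed to compound for 48 h; stained nuclei by imaging scaled within each plate; lower means fewer cells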
HSV augment primary fold: also measured in HSV augment; calls as there; fold increase; compound at 10 µM; measured here: primary screen fold increase 10 uM; tested in PC3 cells;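 GFP signal in the first replicate; 1 = infected wells without compound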
* hit, by the source's call; i = inactive; / = no result given; [ ] = another dose, or the depositor's remark.

| Molecule | INS promoter inh cell count | HSV augment | RGS16-Gao | INS promoter inh | HSV augment primary fold | PKD1 inh | GALR2 agonist |
| --- | --- | --- | --- | --- | --- | --- | --- |
| Cc1cc(NC(=O)c2c(C)noc2C)no1 | / | i | 101.3 | / | 1.03 | / | / |
| CCCCCn1c(N)c(-c2nc3ccccc3s2)c2c([N+](=O)[O-])nn(CC)c(=O)c21 | 89.7 | i | 104.5 | 10.3 | 0.81 | -9.3 | -2.2 |
| Cn1cccc1C(=O)OCC(=O)Nc1cccc(S(=O)(=O)N2CCOCC2)c1 | 64.9 | i | 101.6 | 16.7 | 1.03 | 0.1 | / |
| O=C(NCCC1=CCCCC1)c1ccc2c(c1)N(Cc1ccccc1)C(=O)CS2 | 102.3 | i | 90.3 | -11.1 | 0.97 | -16.1 | -1.0 |
| Cn1cnnc1SCc1ccc(C#N)cc1Cl | 165.4 | i | 99.0 | 5.9 | 0.91 | -3.3 | -0.8 |
| CC1=C(C(=O)OC(C)C)C(C2CC=CCC2)NC(=O)N1 (configuration not stated) | / | i | 101.7 | / | 0.81 | -4.9 | -3.8 |
| CC1CCN(C(=O)C2c3ccccc3C(=O)N3CCc4ccccc4C23)CC1 (configuration not stated) | / | i | 98.2 | / | 1.1 | -13.3 | -1.6 |
| O=C(Nc1nnc(CC2=CCCCC2)s1)c1cccs1 | 106.7 | i | 100.7 | -197.1 | 0.9 | -6.8 | -0.9 |
| CCC(NC(C)C)C(O)c1ccc(O)c(O)c1 (configuration not stated) | 84.6 | i | 98.4 | 57.1 | 0.92 | -6.5 | -1.0 |
| Cc1ccc2nc(C)c3c(c2c1)OC(C(C)(Cl)Br)C3 (configuration not stated) | / | i | 100.0 | / | 0.94 | / | / |
| COc1cc(S(=O)(=O)N2CCCCC2)ccc1NC(=O)Cc1ccccc1 | 114.4 | i | 100.6 | 0.0 | 0.78 | -5.6 | 1.3 |
| CCC(C)c1c(O)nc(SCc2ccccc2)[nH]c1=O (configuration not stated) | 149.6 | i | 101.0 | 42.1 | 0.89 | -7.4 | -1.5 |
| Cn1c(Cn2nnc3ccccc32)nnc1SCC(=O)Nc1nccs1 | / | i | 100.1 | / | 0.88 | 6.6 | 0.7 |
| Cc1cc(OCCNCCO)cc(C)c1Cl | 106.1 | i | 105.6 | -25.8 | 0.84 | -2.1 | -1.0 |
| O=C(COC(=O)CCc1ccc(S(=O)(=O)N2CCOCC2)cc1)Nc1ncc(C(F)(F)F)cc1Cl | 138.2 | i | 100.3 | -21.4 | 0.83 | -8.1 | -2.4 |
| CCC(C)c1ccc(NC(=O)c2cccnc2)cc1 (configuration not stated) | 141.2 | i | 74.3 | -10.0 | 0.9 | -3.9 | -1.8 |
| CCOc1ccc(-n2nc3c(SCCN4CCCC4)nnc(C)c3c2C)cc1 | 56.4 | i | 202.2*[activator] | 23.3 | 0.95 | -2.1 | -0.3 |
| CSc1ncc(-c2ccccc2)cn1 | 63.1 | i | 79.8 | -44.4 | 0.87 | -1.9 | / |
| CC(C(=O)N1CCCc2c1c(=O)oc1ccc(O)cc21)N1CCc2ccccc2C1 (configuration not stated) | 120.9 | i | 114.5 | -38.9 | 0.97 | -6.6 | -2.1 |
| O=C(COC(=O)c1ccco1)Nc1nc2ccccc2s1 | / | i | 91.3 | / | 1.04 | -3.9 | -0.5 |
| O=C1CCOc2cc(OCc3ccccc3)ccc21 | 145.1 | i | 104.5 | 62.8 | 0.91 | -6.2 | -1.3 |
| CC(C)(C)C1CCC(C(=O)OCC(=O)Nc2ccc3[nH]c(=O)[nH]c3c2)CC1 (configuration not stated) | 145.7 | i | 95.2 | 23.5 | 0.92 | 2.6 | / |
| COc1ccccc1NC(=O)Nc1ccc(Cl)c(S(=O)(=O)Nc2ccccc2OC)c1 | 166.9 | i | 98.9 | -13.5 | 0.85 | -3.1 | -0.1 |
| CCOC(=O)N1CCN(C(=O)C2CCCN(S(=O)(=O)c3ccc(C)cc3)C2)CC1 (configuration not stated) | 47.2 | i | 112.6 | 0.0 | 0.66 | -1.8 | -1.2 |
| COc1ccc(NC(=O)C(CC(C)C)NC(=O)C2CCCCC2)c(OC)c1 (configuration not stated) | 108.6 | i | 106.8 | -40.0 | 0.94 | -2.5 | / |

Next section, starting with the last 3 of the part before.
| Molecule | INS promoter inh cell count | HSV augment | RGS16-Gao | INS promoter inh | HSV augment primary fold | PKD1 inh | GALR2 agonist |
| --- | --- | --- | --- | --- | --- | --- | --- |
| COc1ccccc1NC(=O)Nc1ccc(Cl)c(S(=O)(=O)Nc2ccccc2OC)c1 | 166.9 | i | 98.9 | -13.5 | 0.85 | -3.1 | -0.1 |
| CCOC(=O)N1CCN(C(=O)C2CCCN(S(=O)(=O)c3ccc(C)cc3)C2)CC1 (configuration not stated) | 47.2 | i | 112.6 | 0.0 | 0.66 | -1.8 | -1.2 |
| COc1ccc(NC(=O)C(CC(C)C)NC(=O)C2CCCCC2)c(OC)c1 (configuration not stated) | 108.6 | i | 106.8 | -40.0 | 0.94 | -2.5 | / |
| CC1=NN(c2ccccc2)C(=O)C1(C)[N+](=O)[O-] (configuration not stated) | 122.8 | i | 102.8 | -15.4 | 0.81 | -9.5 | -1.2 |
| O=C(O)COc1ccc(=O)n(-c2ccccc2)n1 | 144.6 | i | 99.8 | -21.4 | 0.96 | 1.5 | -1.9 |
| Cc1ccc(NC(=O)N2C(=O)C3(OCCO3)c3ccccc32)cc1 | 65.0 | i | 95.5 | -14.3 | 0.98 | -27.4 | -2.1 |
| CN(C)c1ccc(C=NCC2COc3ccccc3O2)cc1 (configuration not stated) | / | i | 114.0 | / | 1.04 | -2.4 | / |
| O=C(O)CCCC(=O)NCCc1cccc(Cl)c1 | 101.6 | i | 70.6 | -62.7 | 0.99 | -7.5 | 0.8 |
| Cc1ccc(C(=O)Nc2ccccc2C(=O)NC(Cc2ccccc2)C(=O)O)cc1 (configuration not stated) | 102.4 | i | 99.2 | 36.4 | 0.86 | 6.5 | / |
| COCC(=O)Nc1nnc(-c2ccc(C(C)(C)C)cc2)s1 | / | i | 99.1 | / | 0.88 | -1.9 | / |
| Cn1nc(CC(=O)NCc2ccc(C(F)(F)F)cc2)c2ccccc2c1=O | 103.7 | i | 101.9 | 20.0 | 0.98 | -4.0 | -3.1 |
| O=C(/C=C/c1ccccc1)Nc1nnc(SCC(=O)c2ccc3ccccc3c2)s1 | 149.4 | i | 101.1 | 10.7 | 0.82 | -2.4 | -0.9 |
| Cc1ccccc1NC(=O)COc1ccc2oc(=O)cc(C)c2c1 | / | i | 108.8 | / | 1.05 | -3.9 | / |
| COc1ccc(CCNC(=O)C(=O)Nc2ccc3nc4n(c(=O)c3c2)CCCCC4)cc1OC | / | i | 104.8 | / | 0.86 | / | / |
| COc1ccccc1CN1CCCC(C(=O)N2CCCCC2)C1 (configuration not stated) | / | i | 105.8 | / | 0.9 | / | / |
| CCOC(=O)C1[C@H]2C(=O)N(C(C)c3ccc(OC)cc3)C[C@]23C=C[C@H]1O3 (some centres not stated) | 70.8 | i | 89.1 | 14.3 | 1.13 | 4.6 | -0.9 |
| CCCO/N=C1/C(=O)N(c2ccccc2)c2ccccc21 | 109.3 | i | 100.1 | 0.0 | 0.95 | -0.2 | / |
| CCn1nccc1C(=O)Nc1ccc(S(=O)(=O)NC23CC4CC(CC(C4)C2)C3)cc1 | 77.9 | i | 108.4 | -211.6 | 0.88 | -6.0 | -0.6 |
| O=C(C1=C[C@@H](c2ccc(Br)cc2)C[C@@H](OCCCCO)O1)N1CCN(Cc2ccc3c(c2)OCO3)CC1 | / | i | 85.3 | / | 0.87 | 1.5 | / |
| O=[N+]([O-])c1cccc(-c2cn3nc(-c4ccccc4)c(-c4ccccc4)nc3n2)c1 | / | i | 100.5 | / | 1.52 | / | / |
| O=C(Cc1ccc(F)cc1)N/N=C/c1ccc(-c2ccc(Cl)c(C(=O)O)c2)o1 | 124.2 | i | 101.7 | 38.9 | 1.08 | 24.0 | / |
| COc1cc(C(=O)NC(CCSC)C(=O)OCC(=O)NC(=O)C2CCCCC2)cc(OC)c1OC (configuration not stated) | 136.9 | i | 99.9 | 0.0 | 1.06 | -0.5 | / |
| NC(=O)NCCC1=CCCCC1 | 126.6 | / | 99.6 | 15.5 | / | -4.6 | -1.5 |
| c1ccc2[nH]c(SCc3cn4ccccc4n3)nc2c1 | 114.8 | i | 97.0 | 38.1 | 1.06 | 0.5 | / |
| O=C(c1ccc(Cn2c(=O)[nH]c3ccccc3c2=O)cc1)N1CCN(c2ccccn2)CC1 | 99.1 | i | 102.5 | -100.0 | 0.99 | 0.4 | 0.3 |
| Cc1[nH]c2ccccc2c(=O)c1CN1CCCCC1 | 120.6 | i | 103.2 | 0.0 | 0.88 | 1.7 | 0.1 |
| O=C1C2CCCN2C(c2ccccc2)N1c1ccc(F)cc1 (configuration not stated) | / | i | 69.5 | / | 1 | -7.7 | -1.9 |
| Cc1cccc(NC(=S)NC(C)C(c2ccccc2)N2CCN(C)CC2)c1C (configuration not stated) | / | i | 100.6 | / | 0.9 | -0.8 | / |
| CCCc1nc(NCC2CCCO2)c2nnn(Cc3ccccc3)c2n1 (configuration not stated) | 69.2 | i | 112.8 | 44.8 | 0.92 | -2.5 | -1.4 |
| COc1ccc(NC(=O)Cc2c[nH]c3ccccc23)cc1S(=O)(=O)N1CCOCC1 | / | i | 103.7 | / | 0.85 | -5.3 | / |
| CS(=O)(=O)N(CC(=O)N1CCN(Cc2ccccc2)CC1)c1ccc2c(c1)OCCO2 | 128.7 | i | 94.3 | 39.3 | 1.07 | 0.8 | -1.2 |
| Cc1ccc(S(=O)(=O)Nc2ccccc2C=Nc2cccc(C)c2C)cc1 | / | i | 105.6 | / | 1.12 | -7.2 | -1.3 |
| COc1cccc(N2C(=O)N(c3ccccc3Cl)C3CS(=O)(=O)CC32)c1 (configuration not stated) | 146.0 | i | 103.5 | -7.4 | 1.02 | -1.8 | -2.0 |
| O=C(COc1ccccc1-c1ccccc1)N/N=C/c1cccnc1 | / | i | 97.1 | / | 0.82 | 4.1 | / |
| O=C(C1CCCCC1)N1CCCc2ccccc21 | 72.9 | i | 94.7 | 29.6 | 1 | -6.1 | 0.3 |
| COc1ccc(C2=NN(C(=O)CCC(=O)O)C(c3cccs3)C2)cc1OC (configuration not stated) | / | i | 106.6 | / | 1.01 | 0.4 | / |
| Cc1ccc(Oc2nc(CN3CCOCC3)nc3sc4c(c23)CCC(C)C4)cc1C (configuration not stated) | 35.6 | i | 110.3 | 0.0 | 0.97 | 1.5 | 0.2 |
| Cc1ccc2nc(NC(=O)C3CCCN3C(=O)OC(C)(C)C)sc2c1 (configuration not stated) | 161.6 | i | 93.9 | 23.1 | 0.82 | -8.1 | / |
| COCCN(C(=S)Nc1c(C)cc(C)cc1C)C(C)c1cccnc1 (configuration not stated) | 116.6 | i | 55.3 | -33.3 | 1.03 | -2.6 | 0.1 |
| O=C(COC(=O)c1cccs1)NCC1CCCCC1 | / | i | 97.6 | / | 0.97 | -3.7 | / |
| Cc1ccc(S(=O)(=O)N2CCN(S(=O)(=O)c3ccc4c(c3)OCCO4)CC2)cc1 | 71.6 | i | 50.1 | -7.1 | 0.99 | 8.0 | 0.8 |
| COc1ccc(NC(=O)N(C2CCCCC2)C(C)c2cccnc2)c(OC)c1 (configuration not stated) | / | i | 96.6 | / | 0.957 | 6.6 | -1.7 |
| C=C(CCC(=O)c1ccccc1)C(=O)c1ccccc1 | / | i | 58.9 | / | 0.74 | -8.9 | -0.8 |
| O=C(Nc1cnn(Cc2ccc(F)cc2)c1)c1cnccn1 | 157.9 | i | 35.6 | 56.2 | 0.977 | 2.6 | -1.2 |
| NC(=O)CCNC(=O)c1ccc(Cl)cc1 | 55.6 | i | 99.9 | -17.2 | 0.957 | -0.6 | -2.0 |
| Cc1csc(/N=C/N(C)C)c1C#N | / | i | 102.4 | / | 1.13 | / | / |
| COc1ccc(C(=O)c2cc3ccc(O)cc3oc2=O)cc1 | 89.5 | i | 101.5 | 14.3 | 0.98 | -3.2 | 1.2 |
| CCCC(=O)Nc1ccccc1Sc1ncnc2scc(-c3ccccc3)c12 | 135.4 | i | 101.8 | -13.2 | 0.94 | -13.5 | 0.1 |

Gathered by group: those above with a CF3 group
| Molecule | INS promoter inh cell count | HSV augment | RGS16-Gao | INS promoter inh | HSV augment primary fold | PKD1 inh | GALR2 agonist |
| --- | --- | --- | --- | --- | --- | --- | --- |
| O=C(COC(=O)CCc1ccc(S(=O)(=O)N2CCOCC2)cc1)Nc1ncc(C(F)(F)F)cc1Cl | 138.2 | i | 100.3 | -21.4 | 0.83 | -8.1 | -2.4 |
| Cn1nc(CC(=O)NCc2ccc(C(F)(F)F)cc2)c2ccccc2c1=O | 103.7 | i | 101.9 | 20.0 | 0.98 | -4.0 | -3.1 |
